Compound activity: PubChem BioAssay, Johns Hopkins Ion Channel Center
KCNQ2 block = KCNQ2 channel blockers in CHO-K1 cells – cell-based, FluxOR thallium flux, B-score, primary screen (AID 2156); O88943; 20 min; active compounds read low; only compounds with negative scores are shown here; some inactives read as strong as hits; B-score at 10 µM; hit rate 1.1% among 310,000;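 active means fluorescence ratio B-score at most minus 3 library SDs, with starting brightness B-score within 2 library SDs, cut at about -5.5 in these data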
Target sequence (O88943 whole entry, looked up): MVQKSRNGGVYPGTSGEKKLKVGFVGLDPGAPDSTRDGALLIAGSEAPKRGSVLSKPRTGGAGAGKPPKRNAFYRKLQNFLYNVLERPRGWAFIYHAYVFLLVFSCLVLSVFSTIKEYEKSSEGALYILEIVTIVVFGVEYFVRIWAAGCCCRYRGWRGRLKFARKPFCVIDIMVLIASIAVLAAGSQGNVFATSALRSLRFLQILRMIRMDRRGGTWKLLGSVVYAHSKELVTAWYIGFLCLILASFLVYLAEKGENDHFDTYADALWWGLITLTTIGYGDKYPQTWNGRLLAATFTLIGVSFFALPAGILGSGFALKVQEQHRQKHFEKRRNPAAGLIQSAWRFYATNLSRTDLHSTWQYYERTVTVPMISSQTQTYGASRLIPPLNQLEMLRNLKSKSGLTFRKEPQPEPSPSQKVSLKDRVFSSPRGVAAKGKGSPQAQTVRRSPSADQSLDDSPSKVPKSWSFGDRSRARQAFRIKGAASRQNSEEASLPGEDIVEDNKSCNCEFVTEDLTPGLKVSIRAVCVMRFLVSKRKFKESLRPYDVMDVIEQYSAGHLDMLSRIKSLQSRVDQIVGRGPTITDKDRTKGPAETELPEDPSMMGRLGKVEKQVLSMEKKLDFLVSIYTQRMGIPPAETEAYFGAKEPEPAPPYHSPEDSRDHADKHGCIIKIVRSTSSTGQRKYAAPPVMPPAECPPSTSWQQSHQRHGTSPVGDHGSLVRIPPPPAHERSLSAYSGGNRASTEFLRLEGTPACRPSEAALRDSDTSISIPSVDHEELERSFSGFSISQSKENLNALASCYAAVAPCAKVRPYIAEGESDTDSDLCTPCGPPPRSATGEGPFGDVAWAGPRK
KCNQ2 block baseline = recorded beside KCNQ2 block, whose call it bears; B-score; measured here: initial fluorescence intensity artifact check;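 brightness before thallium and not channel activity; 0 = typical well and far values either way flag optical interference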
Starred values were filed as active, the others as inactive; i = inactive. Some of the compounds tested; count on the stated rates, not on these rows.

SMILES	KCNQ2 block	KCNQ2 block baseline
COc1ccc(S(=O)(=O)N2CCCC2CNC(=O)C(=O)NC2CC2)cc1 (stereo not drawn)	i	-1
CC(C)(C)NC(=O)Cn1c(Cl)nc2ccccc21	i	-0.9
C=CCn1c(C(C)NC(=O)c2ccccc2C)n[nH]c1=S (stereo not drawn)	i	0.95
O=C1N(Cc2cccnc2)C[C@@H]2C[C@@H](c3ccc4nsnc4c3)N3CCC[C@@]123	i	-0.66
O=C(NCC(=O)N(CCc1ccccc1)C(C(=O)NC1CCCCC1)c1ccncc1)c1ccco1 (stereo not drawn)	i	0.29
Cc1ccc(-n2c(=O)c3sccc3n(Cc3cc(=O)n4cc(Cl)ccc4n3)c2=O)cc1F	i	-0.47
O=C(CC1NC(=O)NC1=O)NC1(C(=O)NC2CCCCC2)CCCCC1 (stereo not drawn)	i	0.75
COc1ccc(CN2CCC(=O)N([C@H](CO)c3ccccc3)CC2)cc1	i	0.03
O=S(=O)(c1ccccc1)c1nc(Nc2ccccc2N2CCOCC2)sc1Cl	i	2.4
Clc1ccc(OCCCn2cncn2)cc1Cl	i	-0.7
CN(c1ccccc1C(=O)Nc1ccc(CC#N)cc1)S(=O)(=O)c1ccccc1	i	-0.75
Cc1noc(/C=C/c2ccco2)c1S(=O)(=O)N1CCC(C(=O)N(C)Cc2ccccc2)CC1	i	-2.1
Cc1cc2c(c(=O)n1CC1CCCO1)C(c1ccc3c(c1)OCO3)C(C#N)=C(N)O2 (stereo not drawn)	i	-0.21
Fc1ccccc1-c1nc(-c2ccncc2)no1	i	-0.08
COc1ccc(CN2C(=O)CS(=O)CC2=O)cc1OC	i	2.4
CNC(=S)N(Cc1cccs1)Cc1cc2cc(OC)c(OC)cc2[nH]c1=O	i	-0.99
Cc1cccc(/C=N/Nc2cc(N3CCOCC3)nc(N3CCOCC3)n2)c1	i	-0.81
CC(C)c1ccc(CCNC(=O)c2ccc([N+](=O)[O-])cc2)cc1	i	-0.04
Cc1ccc2[nH]c(=O)c(CN(CCCN3CCOCC3)Cc3nnnn3C3CCCC3)cc2c1	i	0.54
O=C(NNC(=S)Nc1cccc(C(F)(F)F)c1)c1cccc(Cl)c1	i	1.2
COC(=O)c1cc(NC(=O)Nc2cc(OC)ccc2OC)cc(C(=O)OC)c1	i	-0.01
CSCC[C@H](NC(=O)C(C)Oc1ccc(Cl)cc1)c1nc2ccccc2[nH]1 (stereo partly drawn)	i	-0.69
CC1CCN(S(=O)(=O)c2ccc3c(c2)oc(=O)n3CC(=O)NCc2ccc3c(c2)OCO3)CC1	i	-1.2
CCOc1ccc(S(=O)(=O)NCCc2cn3ccccc3n2)cc1	i	-1.7
Cc1ccc(NCc2nc3ccccc3n2C)cc1C	i	-0.03
COc1ccccc1OCC(=O)Nc1ccccc1C(=O)Nc1cccc(C(=O)O)c1	i	0.06
CC(=O)N1CCN(c2ccc(NCc3ccccc3)cc2)CC1	i	0.01
COc1ccc(NC(=O)CSc2nccn2C)c([N+](=O)[O-])c1	i	-1.3
COc1ccc2c(c1)c(C(=O)N/N=C/c1cccc(Br)c1)c(C)n2C	i	0.02
CCOc1ccc(N(CC(=O)Nc2c(C)n(C)n(-c3ccccc3)c2=O)S(=O)(=O)c2ccccc2)cc1	i	-0.68

3 entries from above, as labelled records.
> Cc1cc2c(c(=O)n1CC1CCCO1)C(c1ccc3c(c1)OCO3)C(C#N)=C(N)O2 (stereo not drawn)
  KCNQ2 block: i
  KCNQ2 block baseline: -0.21

> Fc1ccccc1-c1nc(-c2ccncc2)no1
  KCNQ2 block: i
  KCNQ2 block baseline: -0.08

> COc1ccc(CN2C(=O)CS(=O)CC2=O)cc1OC
  KCNQ2 block: i
  KCNQ2 block baseline: 2.4

More entries follow:
SMILES	KCNQ2 block	KCNQ2 block baseline
CCc1ccc(NC(=O)CN2C(=O)CC(C)S(=O)(=O)c3ccccc32)cc1 (stereo not drawn)	i	0.08
COc1ccc(NC(=O)COn2nnc3ccc(Cl)cc32)cc1OC	i	-0.74
C=CCn1c(C(CC(C)C)CC(C)O)n[nH]c1=S (stereo not drawn)	i	-0.67
COc1cccc(N/C(SC)=C(/C#N)C(=O)NCc2cccs2)c1	i	0.01
Clc1ccc(CSc2cc3c(nn2)-c2ccccc2CC3)cc1Cl	-8.3*	0.2*
COC(=O)c1c(NC(C)=O)sc(C(=O)Nc2ccccc2)c1C	i	-0.88
Cc1ccc(C(=O)CSc2nnc(-c3cccs3)n2C)o1	i	-2.2
COc1ccc([N+](=O)[O-])cc1NC(=O)c1ccc(CN(c2ccc(C)c(C)c2)S(C)(=O)=O)cc1	i	1.1
CC(=O)c1cccc(NC(=O)c2ccc(N(Cc3ccccc3C)S(C)(=O)=O)cc2)c1	i	1.5
CC(C)(C)C1CCC(=NNC(=O)c2cc(-c3ccccc3)n[nH]2)CC1 (stereo not drawn)	i	1.4
CCCCn1c(N)c(N(CCOC)C(=O)c2cc3c(s2)CCCCC3)c(=O)[nH]c1=O	i	0.65
Cc1cc(NC(=O)CCC(=O)N(C(C(=O)NC(C)(C)C)c2ccccc2Cl)C(C)(C)C)no1 (stereo not drawn)	i	0.55
CC1CCCC(NC(=O)COC(=O)[C@@H]2CC(O)CN2S(=O)(=O)c2ccc3c(c2)OCCO3)C1C (stereo partly drawn)	i	-0.71
CC1CCN(C(=S)Nc2ccc3nc4n(c(=O)c3c2)CCCCC4)CC1	i	1.8
CC/C(=N\NC(=O)Cc1ccc(Br)cc1)c1cccs1	i	1.2
Fc1ccc(-c2nnc(SCc3ncc(-c4ccccc4)o3)n2CC2CCCO2)cc1 (stereo not drawn)	i	0.7
CCOC(=O)c1c(NC(=O)c2nc3n(n2)C(C(F)F)CC(C)N3)sc2c1CCCC2 (stereo not drawn)	i	0.84
Cc1nnc(-c2ccccc2)nc1N1CCOCC1	i	0.45
O=C(N/N=C/c1ccc(-c2ccccc2[N+](=O)[O-])o1)c1cncc(Br)c1	i	-1.4
Cc1ccc(-n2cc(C(C)(C)C)[nH]c2=S)cc1	i	2.4
Cc1ccc(CN2CCCN(Cc3c(C)cc(C)cc3C)S2(=O)=O)cc1	i	-1.2
C=CCn1c(SC(C)C(=O)NCc2ccc3c(c2)OCO3)nnc1C1CCCCC1 (stereo not drawn)	i	0.53
Cc1ccc(S(=O)(=O)N2CCOCC2)cc1C(=O)Nc1ccc(-c2cn3ccsc3n2)cc1	i	-0.3
CCNC(=S)/N=C(\N)Nc1nc(C)c2cc(C)ccc2n1	i	0.79
Cc1cc(S(=O)(=O)N2CCN(c3ccccc3C)CC2)ccc1F	i	-1.4
COC(=O)c1ccc(C(C(=O)NC2CCCCC2)N(Cc2ccc(F)cc2)C(=O)Cc2cccs2)cc1 (stereo not drawn)	i	-0.04
CCCOc1cccc(C2C(C(=O)c3cc4ccccc4o3)=C(O)C(=O)N2c2cc(C)on2)c1 (stereo not drawn)	i	-0.53
COc1ccccc1NC(=O)c1ccc(NC(=O)c2cc3c(s2)CCC3)cc1	i	0.68
COC(=O)c1oc2ccc(Br)cc2c1NC(=O)CCN1CCOCC1	i	0.43
O=C(CSc1ccc(Br)cc1)Nc1ccccc1N1CCOCC1	i	-0.06

The closing four compounds of the part above open the next one.
SMILES	KCNQ2 block	KCNQ2 block baseline
CCCOc1cccc(C2C(C(=O)c3cc4ccccc4o3)=C(O)C(=O)N2c2cc(C)on2)c1 (stereo not drawn)	i	-0.53
COc1ccccc1NC(=O)c1ccc(NC(=O)c2cc3c(s2)CCC3)cc1	i	0.68
COC(=O)c1oc2ccc(Br)cc2c1NC(=O)CCN1CCOCC1	i	0.43
O=C(CSc1ccc(Br)cc1)Nc1ccccc1N1CCOCC1	i	-0.06
CN(C)c1ccc(/C=N/NC(=O)CSc2ccccn2)cc1	i	0.81
CC(=O)C1=C(O)C(=O)N(Cc2cccnc2)C1c1ccc(C(C)C)cc1 (stereo not drawn)	i	0.18
Cn1c(=O)n(C)c2cc(N3CCCCC3)c(NC(=O)c3cccc(Cl)c3)cc21	i	1.4
Cc1cc(C)nc(SCc2nnc(SCC(=O)N3CCCc4ccccc43)o2)n1	i	1.2
CC(=O)Nc1nc2ccc(S(=O)(=O)N3CCCCC3)cc2s1	i	-0.62
Cn1c(=O)oc2cc(S(=O)(=O)NC3CCCc4ccccc43)ccc21 (stereo not drawn)	i	-0.3
COc1ccc(C(=O)NCCN2CCCC2)cc1	i	1.6
Brc1ccc(OCCCN2CCOCC2)cc1	i	-0.06
Cc1ccc(-n2nnc3c(=O)n(Cc4cccc(C)c4)cnc32)cc1	i	1
CCN1CCN(c2nc(-c3cccnc3)nc3ccccc23)CC1	i	0.02
Cn1c(SCC(=O)NC(C)(C)C)nnc1-c1ccc(C(C)(C)C)cc1	i	-0.91
O=C(N/N=C/c1c[nH]c2ccccc12)c1cccs1	i	-1.3
O=S(=O)(O)c1cnccc1Nc1cccc(C(F)(F)F)c1	i	-3.8
COc1ccccc1C1C(C(C)=O)=C(O)C(=O)N1CCc1ccccc1 (stereo not drawn)	i	1
OCCNc1ccc(Cl)cc1	i	-0.79
Cc1ccc(S(=O)(=O)NCC(=O)N(CC2CCCO2)C(C(=O)NCC2CCCO2)C(C)C)cc1 (stereo not drawn)	i	1.8
Cc1ccc(OCC(=O)Nc2ccc(Cl)cc2)c(-n2nc3ccccc3n2)c1	i	0.84
CC(=O)C(=[N+]=[N-])C(=O)NCc1ccccc1	i	-0.03
CC(NC1c2ccccc2-c2ccccc21)c1ccccc1 (stereo not drawn)	i	-0.02
COc1ccc(OCC2c3cc(OC)c(OC)cc3CCN2C(=O)C(C)C)cc1 (stereo not drawn)	i	-1.3
CC1CC(=O)N(CC(=O)NCc2ccccc2)c2ccccc2S1(=O)=O (stereo not drawn)	i	0.76
Cc1cc(-c2ccccc2)nc(N2CCC(C(=O)NCc3ccccc3Cl)CC2)n1	i	1.2
NNC(=O)c1ccc2[nH]c3c(c2c1)CCCC3	i	1.2
CN(C(=O)CC(NC(=O)c1ccccc1Cl)c1ccccc1)c1ccccc1 (stereo not drawn)	-5.7*	-0.8*
CNC(=S)N1CCN(CCNC2=CC(=O)CC(C)(C)C2)CC1	i	0.57
Cc1cccc2c1OCC/C2=N\NC(=O)COc1ccccc1Cl	i	-0.59
Cc1c(C(=O)Nc2ccc(Br)cc2)cnn1C	i	-3.5
COC(=O)c1sc(NC(=O)CSc2n[nH]c(N)n2)c(C(=O)OC)c1C	i	1.9
Cc1[nH]n(-c2ccccc2)c(=O)c1N=Nc1ccc2c(c1)OCCO2	i	-0.16
CC1(C)CC(=O)C2=C(C1)N=C1SCCC(=O)N1C2c1ccc(C(F)(F)F)cc1 (stereo not drawn)	i	1.1

Other entries.
SMILES	KCNQ2 block	KCNQ2 block baseline
CCn1cc(/C=N/NS(=O)(=O)c2ccc(C)cc2)c(C)n1	i	-1.4
Cc1cnc(C(=O)OCc2ccc(COC(=O)c3cnc(C)cn3)cc2)cn1	i	1.1
O=C(c1cc(-c2ccc(O)cc2)on1)N1CCCc2ccccc21	i	-0.84
COC(=O)Cc1ccc(OC(=O)CCS(=O)(=O)c2ccc(Cl)cc2)cc1	i	0.15
Cc1cccc(-n2c(C)cc(C)c(C#N)c2=O)c1	i	-0.02
Cc1ccc(NC(=O)c2cc3ccccc3o2)nc1	i	-2.9
CN(C(=O)COC(=O)CNC(=O)c1sc2ccccc2c1Cl)c1ccccc1	i	-0.04
N#Cc1cnn2c(N)c(-c3ccc(Cl)cc3)cnc12	i	0.13
CCOC(=O)c1ccc(NC(=O)C2CCCO2)cc1 (stereo not drawn)	i	1.2
CCCCN1CNC(=S)N(c2ccc(C(=O)OCC)cc2)C1	i	0.21
CC(C)[C@H](NC(=O)c1ccccc1Cl)C(=O)OCC(=O)NC(=O)NC1CCCC1	i	0.73
CCOC(=O)N1CCN(C(=O)CSCC(=O)Nc2nc(-c3ccc(Cl)s3)cs2)CC1	i	-1.3
O=C(CSC1=NCCS1)N1CCN(c2ccc(Cl)cc2)CC1	i	0.18
CCCCc1ccc(S(=O)(=O)N2CCC3(CC2)OCCO3)cc1	i	-0.19
COc1cc(NC(=O)c2cc([N+](=O)[O-])ccc2NC(=O)CNCc2ccccn2)cc(OC)c1	i	-0.64
O=C(NCc1ccccc1)c1ccc(N2CCC3(CC2)CC(c2ccccc2)=NO3)c([N+](=O)[O-])c1	i	0.02
Cn1c(=O)c2c(nc(CN3CCC(C(N)=O)CC3)n2Cc2c(F)cccc2Cl)n(C)c1=O	i	-1.3
CC1=NNC(=O)/C1=C\c1cn(-c2ccccc2)nc1-c1ccc(Cl)cc1	i	1.2
CSc1ccc(C#N)cc1NC(=O)c1ccccc1	i	-1.4
O=C(N/N=C/c1ccccc1Br)c1ccc(CSc2cccc3cccnc23)cc1	i	-5.4
O=C(NCc1cccnc1)c1cc(S(=O)(=O)N2CCCC2)c(Cl)cc1Cl	i	-0.45
COc1ccc(-c2nc3n(n2)C(c2cccnc2)C(C(N)=O)=C(C)N3)cc1 (stereo not drawn)	i	0.41
COC(=O)c1c(C)nn(-c2ccc(F)c(Cl)c2)c1-c1cc(C)on1	i	0.6
CCOC(=O)c1ccccc1NC(=O)COC(=O)CCC(=O)c1ccccc1	i	1.5
Cn1c(N2CCOCC2)cc(=O)n(C)c1=O	i	-2
Nc1cc(-c2ccco2)no1	i	0.65
O=C(c1ccc(F)cc1)C1CCN(CCn2c(=S)[nH]c3ccccc3c2=O)CC1	i	0.25
